BJeLR lethal – MLPCN primary cell-based screen for lethality selective to Ras in HRASV12 cells; BJeLR (HRASV12) viability, CellTiter-Glo ATP luminescence, 48 h; reference of the scale not given here; inhibition, % (test concentration not listed); 300,000 tested, 0.17% active; AID 1554, 2009;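 active = replicate mean above 50%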;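 note: 50 nL library stock added to about 25 µL; numbers are from one replicate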
Mtb hypoxia rep – PubChem AID 1159583 | M. tuberculosis hypoxia-regulated fluorescent reporter, fluorescence | fluorescence inhibition, % (no concentration beside the values) | 300,000 tested, 0.1% active;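 active = 35 to 45% if threefold the growth effect, above 45% if 1.5-fold the growth effect; inactive = the rest, general growth blockers included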;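 note: wells of about 50 µL received 100 nL stock; 0% = vehicle wells and 100% = reference inhibitor wells; whole bacteria with a GFP reporter of the hypoxia response; strong numbers were not always called active; many hits fall short of the cut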
Sa ugtP lethal – growth inhibition of ugtP-null S. aureus, primary screen, RN4220 ugtP deletion, OD600; 16 h; some inactives read as strong as hits; growth inhibition, % (test concentration not listed); 330,000 tested, 0.54% active; AID 1259309, 2017;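 active = z-score under -3 and OD600 up to 0.15 on both plates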;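 note: plate controls were untreated wells for no effect and antibiotic for full effect; wells of about 80 µL received 100 nL stock; the first replicate is given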
RN4220 kill – growth inhibition of S. aureus RN4220, primary screen, OD600; 16 h; inhibition, % (no concentration beside the values); 330,000 tested, 0.33% active; AID 1259311, 2017;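 active = z-score of -3 or lower and OD600 up to 0.18 on both plates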;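 note: plate controls were untreated cells for no effect and reference antibiotic for full effect; stock transfer was 100 nL into about 80 µL; one replicate is shown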
PrP UTR inh – inhibition of PrP 5' UTR reporter expression; cell-based PrP 5' UTR mRNA reporter, plate reader; inhibition, % (no concentration beside the values); 340,000 tested, 0.35% active;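 active = every replicate at 50% or more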;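 note: 0 = median of the neutral control wells; tested in H4 reporter cells; numbers are from one replicate; inactives centre near -14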
Autofluor counter – flagged as autofluorescent in microsphere protease counterscreen. fluorescence intensity (test concentration not listed). compound autofluorescence counterscreen, microsphere flow cytometry; hits give high values. 360,000 tested, 3.1% active. AID 624483;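 active = at least 3 SD above the mean of all compounds, about 16000 in these data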;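 note: 100 nL of 1 mM stock went into each well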
Mtb hypoxia rep growth – second read-out of Mtb hypoxia rep, no call of its own (marks repeat the call); growth inhibition, %; measured here: M. tuberculosis growth (absorbance);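 0% = vehicle and 100% = reference antibiotic; read after six days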
* marks the source's active call; other numbers are inactive results; / = not tested or not shown.

Screens in order: BJeLR lethal	Mtb hypoxia rep	Mtb hypoxia rep growth	Sa ugtP lethal	RN4220 kill	PrP UTR inh	Autofluor counter
CCSc1nsc(NC(=O)Nc2ccccc2OC)n1
 : -3	11	7	10	6.1	37	3618
CC(OC(=O)Cc1n[nH]c(=O)c2ccccc12)C(=O)Nc1ccccc1[N+](=O)[O-] (stereo not given)
 : -2	-1	4	2	4.5	-15	5713
O=C(C[n+]1ccc2ccccc2c1)Nc1cc(C(F)(F)F)ccc1Cl
 : -10	/	/	/	/	-8	5983
Cc1ccc(-n2nnnc2CS(=O)(=O)c2ccccc2)c(C)c1
 : -8	6	8	-2	-0.2	-20	6079
COc1cc(Cl)c(S(=O)(=O)N2CCN(Cc3ccc4c(c3)OCO4)CC2)cc1Cl
 : -7	/	/	4	-6.1	-22	5493
Cc1cccc(C(=O)NCC(=O)N2CCC2)c1
 : /	12	0	4	2.8	-34	3092
CC(C)=CC(=O)Nc1ccc(S(=O)(=O)Nc2ccccn2)cc1
 : 3	9	8	2	2.7	-17	3284
CC(C)CNC(=O)COC(=O)CCC(=O)c1ccc(Cl)cc1
 : -5	12	2	9	2.1	-25	4271
NS(=O)(=O)c1cccc(NC(=O)Cn2cnc3ccccc3c2=O)c1
 : 14	8	0	10	2.6	-32	20676*
N=c1ccn(Cc2ccc(Cl)cc2Cl)cc1
 : 12	/	/	6	1.4	-25	3107
O=C(COc1ccc(S(=O)(=O)N2CCCC2)cc1Cl)Nc1ccc2c(c1)OCO2
 : 5	18	1	-2	4.0	-29	10610
CC(=NNc1ccc([N+](=O)[O-])cn1)c1ccc(N)cc1
 : /	9	5	4	4.6	-59	3137
O=C(CSc1nnc(-c2ccccc2)c(-c2ccccc2)n1)N1CCc2ccccc21
 : 5	0	-5	17	4.8	-4	14842
O=C(N/N=C/C=C/c1ccco1)c1cnccn1
 : 0	/	/	/	/	-21	4491
COc1ccc(C)c(-n2c(=O)n(Cc3ccccc3)c(=O)c3[nH]cnc32)c1
 : 6	-9	-3	-1	2.0	/	/
O=C(COc1ccccc1)NN=Cc1cc2c(cc1[N+](=O)[O-])OCO2
 : /	7	0	2	2.8	/	/
O=C(CC1CCCCC1)N1CCC(c2nc(-c3ccc(S(=O)(=O)N4CCCC4)cc3)no2)CC1
 : 14	6	2	8	0.0	-21	6636
Cc1nc(-c2ccc(S(=O)(=O)NCc3cccnc3)s2)cs1
 : 1	-7	-2	-3	-0.1	-3	6344
CCN(CC)S(=O)(=O)c1cc(NC(=O)Cc2ccc(S(=O)(=O)N3CCOCC3)s2)ccc1Cl
 : /	9	9	-6	0.6	1	2907
CC1CC(C)(C)N(C(=O)CN2C(=O)c3ccccc3C2=O)c2ccccc21 (stereo not given)
 : 0	7	8	-5	4.1	-5	9384
C[C@H](CO)N1C[C@H](C)[C@@H](CN(C)S(=O)(=O)c2ccccc2)Oc2ccc(NS(=O)(=O)c3ccc(F)cc3)cc2C1=O
 : /	-2	2	-11	-9.4	-18	3695
O=C1NCC(Nc2ccc(Br)cc2)C(=O)N1 (stereo not given)
 : /	19	12	5	1.7	-24	3330
C=CCNC(=O)c1cccc(Br)c1
 : 2	18	26	-1	7.9	-9	23849*
CC(CCc1ccccc1)NC(=O)c1ccc(NC(=O)c2cccc(Br)c2)cc1 (stereo not given)
 : 4	/	/	/	/	-27	2526
CCOc1ccc(/C=C/c2[nH]c(=O)[nH]c(=O)c2[N+](=O)[O-])cc1
 : 9	7	11	11	-2.7	-24	3812
O=C1CNC(=O)/C(=C/c2ccco2)N1
 : -2	0	-3	5	-0.7	-17	3479
Cc1cc(NO)nc(-c2ccc(Br)cc2)n1
 : 12	2	-5	1	0.8	-55	24290*
CC1CC(C)CN(CC(=O)c2cccs2)C1 (stereo not given)
 : -6	4	13	2	4.7	-7	4094
CCOc1cc(C=C2SC(=S)NC2=O)ccc1OC(=O)c1ccco1
 : /	5	6	38	38	/	/
Cc1cc([N+](=O)[O-])nn1Cc1ccc(C(=O)NN=Cc2ccc(N(C)C)cc2)cc1
 : /	15	9	13	-1.5	/	/

Ordered by length of the SMILES (falling): part of the list above.
Screens in order: BJeLR lethal	Mtb hypoxia rep	Mtb hypoxia rep growth	Sa ugtP lethal	RN4220 kill	PrP UTR inh	Autofluor counter
C[C@H](CO)N1C[C@H](C)[C@@H](CN(C)S(=O)(=O)c2ccccc2)Oc2ccc(NS(=O)(=O)c3ccc(F)cc3)cc2C1=O
 : /	-2	2	-11	-9.4	-18	3695
CCN(CC)S(=O)(=O)c1cc(NC(=O)Cc2ccc(S(=O)(=O)N3CCOCC3)s2)ccc1Cl
 : /	9	9	-6	0.6	1	2907
O=C(CSc1nnc(-c2ccccc2)c(-c2ccccc2)n1)N1CCc2ccccc21
 : 5	0	-5	17	4.8	-4	14842
CC(C)=CC(=O)Nc1ccc(S(=O)(=O)Nc2ccccn2)cc1
 : 3	9	8	2	2.7	-17	3284
CC(=NNc1ccc([N+](=O)[O-])cn1)c1ccc(N)cc1
 : /	9	5	4	4.6	-59	3137
Cc1nc(-c2ccc(S(=O)(=O)NCc3cccnc3)s2)cs1
 : 1	-7	-2	-3	-0.1	-3	6344
CC(C)CNC(=O)COC(=O)CCC(=O)c1ccc(Cl)cc1
 : -5	12	2	9	2.1	-25	4271
O=C(N/N=C/C=C/c1ccco1)c1cnccn1
 : 0	/	/	/	/	-21	4491
O=C1NCC(Nc2ccc(Br)cc2)C(=O)N1 (stereo not given)
 : /	19	12	5	1.7	-24	3330
Cc1cc(NO)nc(-c2ccc(Br)cc2)n1
 : 12	2	-5	1	0.8	-55	24290*
N=c1ccn(Cc2ccc(Cl)cc2Cl)cc1
 : 12	/	/	6	1.4	-25	3107

Next entries
Screens in order: BJeLR lethal	Mtb hypoxia rep	Mtb hypoxia rep growth	Sa ugtP lethal	RN4220 kill	PrP UTR inh	Autofluor counter
CCCCc1nc(SCC(=O)Nc2nnc(C(C)C)s2)n[nH]1
 : -7	4	-1	-1	1.7	-16	5329
CC(C)(Oc1ccc(Cl)cc1)C(=O)NCCCn1ccnc1
 : 1	8	3	10	1.5	-20	10961
C=C(C)CNC(=S)Nc1sc2c(c1C(=O)OCC)CC(C)(C)OC2
 : 1	6	4	6	4.5	-17	2445
S=C(NCc1cccnc1)Nc1ccc(Cl)cc1
 : 9	3	10	-6	-17	-10	3390
COc1cc2cc(C(=O)N3CCN(c4ccccc4OC)CC3)[nH]c2cc1OC
 : 0	14	9	5	4.4	-9	4306
O=C(/C=C/c1ccccc1)CCN1CCCCC1
 : /	4	11	3	0.2	-15	3860
O=C(O)c1ccc(NS(=O)(=O)c2cccc(S(=O)(=O)c3ccc(Cl)c(Cl)c3)c2)cc1
 : -14	-9	3	13	2.0	-26	4701
Cc1ccc(-c2cc(C(=O)Nc3sc4c(c3C(=O)NCc3ccco3)CCC4)[nH]n2)c(O)c1
 : 1	-1	-1	-21	-0.1	-28	2018
O=C(c1ccccc1Sc1ccc([N+](=O)[O-])cc1)N1CCCCC1
 : 4	5	8	4	3.0	-50	2182
Cc1cc(=O)[nH]c(SCc2ccc(Cl)cc2)n1
 : 1	-4	3	6	6.1	-13	3586
CCOC(=O)N1CCC(NC(=O)c2ccc3c(c2)N=C(CC)c2ccccc2S3)CC1
 : 6	-10	2	-5	6.4	-25	5431
CC(c1ccco1)N(C(=O)c1ccccc1NS(=O)(=O)c1cccc([N+](=O)[O-])c1)c1ccccn1 (stereo not given)
 : 0	/	/	/	/	-17	2688
CCCCNC(=O)Cn1cnc2sc(C)c(S(=O)(=O)N3CCN(c4ccccc4OC)CC3)c2c1=O
 : -9	4	-6	-4	3.6	-16	3084
CC(C)Nc1nnc(SCC(=O)Nc2sccc2C#N)s1
 : /	13	1	2	4.4	-5	3688
COc1ccc(S(=O)(=O)N2CCN(C(=O)c3ccc(C)o3)CC2)cc1
 : 0	7	-2	2	1.0	-3	2834
CCOc1ccccc1NC(=O)c1ccc([N+](=O)[O-])cc1
 : -2	11	5	5	4.1	/	/
C=CCNC(=O)C(=O)Nc1cc2c3c(c1)CCC(=O)N3CCC2
 : -2	14	7	7	2.8	-13	5396
CCOC(=O)Cc1csc(NC(=O)C2CCCCC2C(=O)O)n1 (stereo not given)
 : 8	-12	-2	10	21	-10	3169
Cc1cccc(C(=O)NC2CC3CCCC(C2)N3S(=O)(=O)c2ccccc2)c1 (stereo not given)
 : -11	6	8	6	3.1	-12	6260
COc1ccc(S(=O)(=O)N/N=C/c2ccc(OCCN3CCOCC3)c(OC)c2)cc1
 : 4	/	/	/	/	-9	2158
O=c1c2cnn(-c3ccccc3)c2ncn1Cc1ccccn1
 : -5	8	13	7	3.6	-4	3326
Cc1nc2ccccc2n1CC(=O)NN=Cc1cccnc1
 : /	-7	0	8	6.8	/	/
O=C(OCc1cccc(C(F)(F)F)c1)c1cc(S(=O)(=O)N2CCOCC2)ccc1F
 : 9	10	-6	9	6.1	9	6453
CC(C)CN(C(=O)CCNC(=O)c1ccc(Cl)cc1)C1CCS(=O)(=O)C1 (stereo not given)
 : /	0	7	3	-0.5	-28	3437
COc1oc(-c2ccc(Cl)cc2)nc1C(F)(F)F
 : 5	8	14	0	25	-28	4377
COc1cc(C(=O)NCCC(=O)NC(C)CCc2ccccc2)cc(OC)c1OC (stereo not given)
 : -3	9	7	8	-0.5	-17	5577
COc1ccc(CC2c3cc(OC)c(OC)cc3CCN2C)cc1OC (stereo not given)
 : -10	/	/	-8	0.9	-4	4821
COc1cccc(-c2nc(NCCN3CCOCC3)c3ccccc3n2)c1O
 : 0	-2	10	-16	3.6	-29	5459
CCOc1ccc(C(=O)NCCC(=O)NCCCC(=O)O)cc1
 : 14	0	-4	9	2.3	-9	7468
Cc1cc(C)c(CC(=O)c2ccccc2)c(C)c1
 : /	5	11	65	-1.2	-15	3734
COc1ccc(C(=O)N/C(=C\c2ccc(Cl)cc2)C(=O)NCC2CCCO2)cc1 (stereo not given)
 : 0	3	4	6	5.0	6	5840
Cc1ccc(-c2csc(NC(=O)c3cc([N+](=O)[O-])ccc3N3CCOCC3)n2)cc1
 : 13	/	/	/	/	-39	5170
CCC(C)(C)c1nnc(NC(=O)C2CCN(C(=O)c3ccco3)CC2)s1
 : -7	1	2	7	4.6	-13	5583
CN(C)c1ccc(-c2nn3c(C4CCCCC4)nnc3s2)cc1
 : 4	16	12	-40	7.3	-11	15666
O=C(Nc1ccccc1C(=O)O)c1cc(S(=O)(=O)N2CCCCC2)cs1
 : 0	-3	1	7	3.3	-24	4029
CN1C(=O)CSc2ccc(NC(=O)NCc3ccccc3)cc21
 : 2	-6	5	5	0.6	-2	2038
C=CCn1c(SCC(=O)Nc2ccc(C(=O)O)cc2)nc2scc(-c3ccccc3)c2c1=O
 : /	6	3	13	10	2	3202
CCOC(=O)Cc1nnc(NC(=O)CSc2ncc(-c3ccccc3)nn2)s1
 : 6	3	2	3	5.0	-28	4917
Cc1cc(-c2n[nH]c(=S)n2/N=C/c2ccco2)n[nH]1
 : -8	/	/	/	/	-15	3106
COc1ccc(-n2c(COc3ccc(C)cc3)nnc2SCc2ccc(C#N)cc2)cc1
 : 3	-2	0	-14	3.7	6	19083*
O=C(NC1CCSc2ccccc21)c1ccccc1F (stereo not given)
 : -16	15	9	-5	7.6	-14	/
Cc1cc(C)c2nc(N3CCN(C)CC3)c(C#N)cc2c1
 : 4	4	11	-3	14	-35	8253
Cc1cccc(C)c1NC1=NCCCCS1
 : -7	0	-9	6	0.4	-42	8861
Cc1cccc(OP(N)(=O)Oc2cccc(C)c2C)c1C
 : -10	6	13	-8	7.2	-17	4293
Cc1cccc(NC(=O)CN2C(=O)C(C)Oc3ccccc32)n1 (stereo not given)
 : -10	15	5	6	5.8	-9	4303
CCC(CC)c1nnc(NC(=O)c2cc(-c3ccccc3)nc3ccccc23)s1
 : -1	1	-3	5	0.7	-13	9137
S=c1[nH]nc(CCSCc2ccccc2)n1-c1ccccc1
 : 2	13	8	7	4.5	-12	4255
CC(C)(C)OC(=O)N1Cc2ccccc2C[C@H]1C(=O)NC1CCCC1
 : 4	6	0	-1	0.9	-17	3354

From PubChem BioAssay
